Mtb growth = M. tuberculosis H37Rv growth inhibitors, H37Rv strain (AID 1626) | inhibition, % at 10 µM, or IC50 in µM where a hit was titrated | 220,000 tested, 0.95% active | M. tuberculosis H37Rv growth inhibition; higher % means a stronger effect;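 active = confirmed in a dose series; inconclusive = inhibition above 80% but not taken into the dose series; inactive = below 80% or under 30% at every dose of the series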;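 note: bacteria incubated seven days before Alamar blue readout; 0% = bacteria only wells and 100% = bacteria with antibiotic wells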
Mtb bLac sens = beta-lactam sensitization of Mtb H37Rv; 330,000 tested, 0.27% active; M. tuberculosis H37Rv growth with meropenem, percent inhibition; hits of this screen are not shown here; inhibition, % at 25 µM;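 active = about 74% or more and at least 40 points above the plate without the antibiotic, then above 30% in a dose series; inconclusive = first-round hits that could not be retested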;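 note: growth measured after seven days incubation then overnight dye step; 0% = bacteria only wells and 100% = bacteria with antibiotic; twin plates without the antibiotic show which effects depend on it; some results filed as inactive read as strong as hits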
RecA splice inh = inhibitors of M. tuberculosis RecA intein splicing; P9WHJ3; cell-free RecA intein splicing, fluorescence; inhibition, %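 (about 9 µM by stock and volumes)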; 290,000 tested, 0.75% active; in the data active = inhibition above about 30%; inconclusive = no clear call, values can overlap the other calls;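 note: 0% = vehicle wells and 100% = reference inhibitor control wells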
Target sequence (P9WHJ3 whole entry, looked up, canonical isoform): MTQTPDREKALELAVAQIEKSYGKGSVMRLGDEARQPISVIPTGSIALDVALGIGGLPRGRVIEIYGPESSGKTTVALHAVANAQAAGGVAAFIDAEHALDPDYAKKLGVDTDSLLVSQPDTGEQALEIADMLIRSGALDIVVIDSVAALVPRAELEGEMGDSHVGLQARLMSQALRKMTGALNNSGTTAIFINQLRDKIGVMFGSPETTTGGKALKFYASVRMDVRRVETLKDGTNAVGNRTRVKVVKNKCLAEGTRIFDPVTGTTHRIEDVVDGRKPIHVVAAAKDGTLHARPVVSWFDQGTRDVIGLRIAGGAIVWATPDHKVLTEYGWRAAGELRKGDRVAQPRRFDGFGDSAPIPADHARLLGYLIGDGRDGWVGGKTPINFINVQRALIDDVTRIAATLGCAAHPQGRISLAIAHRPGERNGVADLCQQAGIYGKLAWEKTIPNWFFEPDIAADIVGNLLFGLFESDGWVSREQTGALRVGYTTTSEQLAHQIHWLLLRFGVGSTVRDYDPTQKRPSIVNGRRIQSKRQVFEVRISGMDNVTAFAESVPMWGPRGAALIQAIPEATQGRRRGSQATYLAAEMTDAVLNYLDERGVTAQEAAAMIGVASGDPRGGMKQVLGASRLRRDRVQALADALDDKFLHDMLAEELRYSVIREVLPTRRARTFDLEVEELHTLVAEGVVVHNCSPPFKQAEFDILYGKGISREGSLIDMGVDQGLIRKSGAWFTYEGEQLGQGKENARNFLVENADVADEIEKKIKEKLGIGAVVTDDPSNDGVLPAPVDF
Arbovirus inh = antivirals against arbovirus infection; arbovirus infection cell-based antiviral screen; inhibition, % at 10 µM; 200,000 tested, 0.37% active;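 active = inhibition from about 30%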;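 note: bluetongue infection of BSR cells; cell survival read as ATP light after 72 h; 0% = infected wells without compound and 100% = uninfected wells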
YopH inh = inhibitors of Yersinia enterocolitica YopH tyrosine phosphatase; fluorescence Ex485/Em525; inhibition, %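 (about 10 µM by stock and volumes)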; 140,000 tested, 0.16% active;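 active = inhibition of 50% or more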;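 note: controls were vehicle for no effect and minimum signal wells for full effect; inactives centre near -20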
Arbovirus inh repeat = further read-out of Arbovirus inh, marked with its call; inhibition, %; measured here: 10K subset replicate screen; many hits read low in the repeat;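 first of two repeat runs on a subset; 0% = infected and 100% = uninfected wells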
An asterisk follows results filed as active; i = inactive; ? = inconclusive; / = not tested or not shown.

SMILES	Mtb growth	Mtb bLac sens	RecA splice inh	Arbovirus inh	YopH inh	others
CC(=O)c1c(N2CCCC2)[nH]c(-c2ccccc2)nc1=S	3%	45	2.4	6	-47
O=C(NCc1ccccc1)C(c1cccnc1)N(C(=O)c1csnn1)c1ccccc1 (stereo unspecified)	/	-2	1.2	/	/
CC(C)CCNC(=S)Nc1ccccn1	2%	5	0.0	13	-25
NC(=O)CSc1n[nH]c(=O)n1CCc1ccccc1	/	7	-3.3	/	/
O=C(COC(=O)COc1ccccc1)Nc1ccc(OC(F)(F)F)cc1	11%	-2	-4.5	5	-49
CC(=O)NNC(=O)c1sc(=S)n(C)c1C	-2%	32	0.0	/	/
CCCn1c(N)c(N2CCCCC2)c(=O)n(CC(=O)Nc2ccccc2C)c1=O	-3%	-12	0.0	6	-7
CC(=O)N(NC(=O)c1ccccc1Cl)C1CC(=O)N(c2ccc(C)cc2)C1=O (stereo unspecified)	-5%	-5	-2.2	1	-56
COc1cccc(NS(=O)(=O)c2ccc(-n3cccn3)cc2)c1	/	-7	0.1	/	/
CCOc1nc(-c2ccccc2)ccc1-c1noc(-c2cccnc2)n1	/	5	-1.3	/	/
CN(C(=O)C1CCC(=O)N(CCCN2CCCC2=O)C1)C(C1CC1)C1CC1 (stereo unspecified)	/	2	1.1	/	/
CC(C)CC(=O)N1CCN(C(=O)c2cccc(F)c2)CC1	-5%	-7	-8.3	5	-48
CCCCN(C)CCC(=O)Nc1ccc2c(c1)CCC2	4%	-8	0.4	-4	/
CC1CCN(CCNC(=O)C2CCN(S(=O)(=O)c3cccc4nsnc34)CC2)CC1	/	-10	2.2	/	/
CCCCc1ccc(NC(=O)N[C@H](C(=O)O)C(C)CC)cc1 (stereo partly specified)	1%	2	-3.6	0	-7
COc1ccc(OC)c(C2CC(=O)OC3=C2C(=O)CC(C)(C)C3)c1 (stereo unspecified)	5%	3	-3.4	3	/
Cc1cc(C(=O)NCC(c2ccco2)N(C)C)no1 (stereo unspecified)	-19%	9	-0.7	-1	7	Arbovirus inh repeat=9
COc1ccc(NC(=O)c2sc(=S)[nH]c2N)cc1	-1%	-10	-1.8	4	-32
O=S(=O)(/C=C/c1ccccc1)Oc1ccccc1	9%	/	0.7	-7	-11
COc1ccc(OC)c(NC(=O)CN2C(=O)c3ccccc3S2(=O)=O)c1	-6%	4	0.3	-4	-30

The closing 4 entries of the section above come first, to join the parts:
SMILES	Mtb growth	Mtb bLac sens	RecA splice inh	Arbovirus inh	YopH inh	others
Cc1cc(C(=O)NCC(c2ccco2)N(C)C)no1 (stereo unspecified)	-19%	9	-0.7	-1	7	Arbovirus inh repeat=9
COc1ccc(NC(=O)c2sc(=S)[nH]c2N)cc1	-1%	-10	-1.8	4	-32
O=S(=O)(/C=C/c1ccccc1)Oc1ccccc1	9%	/	0.7	-7	-11
COc1ccc(OC)c(NC(=O)CN2C(=O)c3ccccc3S2(=O)=O)c1	-6%	4	0.3	-4	-30
O=C(Cn1cncn1)N/N=C/c1cc([N+](=O)[O-])ccc1O	-7%	16	3.5	/	/
CCOC(=O)C1=C(CS(=O)(=O)c2ccc(F)c(C)c2)NC(=O)NC1c1ccc(O)c(O)c1 (stereo unspecified)	8%	4	-11	-11	-5	Arbovirus inh repeat=-2
COC(=O)C(NC(=O)c1ccccc1)=C1CCCCC1	-6%	4	0.2	0	-20
COc1ccc(C(=O)CN2CCN(c3cc(C)nc4ccccc34)CC2)cc1	-8%	-4	-1.1	/	/
C#CCOCCOCCOCCNc1nc(N2CCN(C(=O)[C@H](CCC(=O)O)n3cc(C(N)Cc4ccc(O)cc4)nn3)CC2)nc(N2CCN(C(=O)[C@H](CCC(=O)O)n3cc(C(N)Cc4ccc(O)cc4)nn3)CC2)n1 (stereo partly specified)	-6%	-5	1.0	1	/
CCN(CC)CCCN=Cc1c(O)n(-c2ccc(C)cc2)c(=O)c2ccccc12	-7%	-6	0.5	/	/
NC(=O)CNC(=O)C1CCCc2c1[nH]c1ccc(Cl)cc21 (stereo unspecified)	-8%	0	-2.6	6	-18
CCCCn1c(C(C)O)nc2ccccc21 (stereo unspecified)	1%	3	0.6	7	-2
O=C(NC(=S)NC1CCCCCC1)c1cncc(Br)c1	4%	0	-0.2	15	-25
O=C(C1CC(=O)N(c2ccc(F)cc2)C1)N1CCOCC1 (stereo unspecified)	/	3	-2.3	/	/
CCOC(=O)c1cc2ccc3ccccc3c2oc1=O	/	7	i	/	/
Cc1ccc(S(=O)(=O)N2CCC3(CC2)OCCO3)c(C)c1	/	0	0.2	/	/
CCCN(CCC)CCNC(=O)Cn1cnc2sc(C)c(S(=O)(=O)N3CCOCC3)c2c1=O	/	-4	5.4	-1	-2	Arbovirus inh repeat=-1
CCOC(=O)c1c(C)[nH]c(C)c1S(=O)(=O)NCCc1sccc1C	/	1	2.9	/	/
Cc1ccc(CN2C(=O)CCC2C(=O)NC2CCCC2)cc1 (stereo unspecified)	-4%	-17	1.1	6	-17
CN1CCN(S(=O)(=O)c2cccs2)CC1	1%	-2	-0.6	1	/
Cc1cc(C)nc(SCCS(=O)(=O)Cc2ccc(Cl)cc2)n1	0%	-1	2.6	7	32
c1ccc2c(c1)[nH]c1c3ccccc3sc21	3%	1	0.3	/	/
CN1CCC(C)(O)C2CCCCC21 (stereo unspecified)	0%	-8	0.5	6	/
CCCCS(=O)(=O)C1CCS(=O)(=O)C1 (stereo unspecified)	-6%	-11	1.4	-2	-20
Cc1ccccc1C(C(=O)NC1CCCC1)N(C(=O)Cc1cccs1)c1ccc2c(c1)OCCO2 (stereo unspecified)	0%	3	-2.6	-30	-35
Cc1ccc(N(C(=O)c2csnn2)C(C(=O)NC2CCCCC2)c2cccnc2)cc1 (stereo unspecified)	/	-5	0.5	/	/
COCCN1CCn2c(nc3cc(NC(=O)c4ccc(OC)cc4)ccc32)C1	-2%	2	7.3	9	-37
Cc1ccc(CNC(=O)C2CCCN(S(=O)(=O)c3c(C)noc3C)C2)cc1 (stereo unspecified)	-1%	-4	-0.6	-5	-2
O=C1CC(N2CCN(c3ccc(Cl)cc3)CC2)C(=O)N1c1ccccc1 (stereo unspecified)	/	1	0.1	/	/
CC(C)CC(C)NC(=O)c1ccc(C(F)(F)F)cc1 (stereo unspecified)	6%	74	-0.4	/	/
O=C(CCNS(=O)(=O)c1ccc(Br)cc1)N1CCN(c2ccccc2O)CC1	/	-4	4.9	/	/
CCN(C(=O)CSc1nnc(-c2ccncc2)n1-c1ccccc1)C1CCS(=O)(=O)C1 (stereo unspecified)	6%	-8	1.7	2	/
CSCCC(=O)Nc1cc(S(=O)(=O)N2CCOCC2)ccc1N1CCN(C)CC1	-7%	-3	4.9	15	/
CCCC12CN3CC(C)(CN(C1)C3c1ccc([N+](=O)[O-])o1)C2=O (stereo unspecified)	-7%	97	-4.0	/	/
O=c1c2ccccc2nnn1Cc1nnc(-c2ccccc2Br)o1	-8%	6	-3.9	2	-40
COC(=O)c1ccc(CN(C(C)=O)c2ccccc2)o1	6%	-6	0.2	6	-14
Cc1ccc(-n2ncc(C(=O)Nc3cc(Cl)ccc3Cl)c2C2CCNCC2)cc1	9%	-10	2.4	-18	/
C/C(=N\NC(=O)Nc1ccccc1)c1ccccc1	-6%	8	-0.9	-7	-7
COc1ccc(NC(=O)CC2C(=O)N(Cc3ccco3)C(=S)N2C(C)C)cc1 (stereo unspecified)	-6%	-5	0.2	-3	/
COc1ccc([C@H]2C(C#N)=C([S-])N[C@](C)(O)[C@@H]2[n+]2ccccc2)cc1	-4%	/	-0.7	/	/
CCOc1ccc(N(CC(=O)N2CCCCCC2)S(C)(=O)=O)cc1	/	-4	3.9	/	/
COc1ccc(NC(=O)C(NC(C)=O)C(=O)Nc2ccc(F)cc2)cc1 (stereo unspecified)	/	-8	-0.3	/	/
Cc1ccc(OCC(=O)N2CCCCCC2)c(C)c1	-13%	3	-1.0	-4	13
O=C(COc1ccc([N+](=O)[O-])cc1)Nc1ccc2c(c1)OCO2	23%	-5	1.8	-8	/
CC(CN1CCN(C)CC1)OC(=O)c1cccc(F)c1 (stereo unspecified)	/	-4	-9.8	/	/
CCN1CCN(c2ncnc3sc(C)c(-c4ccccc4)c23)CC1	/	-2	0.1	/	/
Cc1ccc(C(=O)NNC(=O)CCCN2C(=O)/C(=C/c3ccccc3Cl)SC2=S)cc1	-1%	1	-1.6	-9	-15
O=C(NCCN1CCCC1)c1ccc2c(=O)n(CCc3ccccc3)c(=O)[nH]c2c1	-7%	57	-0.4	-16	-32
O=c1c2ccccc2nc2n1CCN2	-2%	8	-2.1	4	-18	Arbovirus inh repeat=1
Cc1ccc(NC(=O)c2sc3ncnc(N4CCN(c5ccccn5)CC4)c3c2C)c(C)c1	/	96	73*	/	/
O=C1/C(=C/c2cccnc2)CCC/C1=C\c1cccnc1	?	100	/	-34	-30
COc1cccc(O)c1CN1CCC(n2nccc2NC(=O)c2ccc3c(c2)OCO3)CC1	/	-6	-2.9	/	/
Cc1cc(C)nc(SCC(=O)N(C)C)n1	-3%	2	-0.9	-2	/
Cc1ccc(C(=O)c2sc(Nc3ccccc3)c(C#N)c2N)cc1	3%	2	-6.0	-4	-31
COc1cc(NS(=O)(=O)c2ccc(NC(=S)NC(=O)c3cccs3)cc2)nc(OC)n1	9%	5	-0.5	-2	-18
CCOC(=O)c1cnc2nc(COc3ccccc3)[nH]n2c1=O	-3%	-4	/	9	-35
O=C(c1ccc(F)cc1Cl)N1CCC2(CC1)OCCO2	/	7	-2.6	/	/
CNS(=O)(=O)c1cn(CC(=O)NCc2ccccc2OC)cc1S(=O)(=O)NC	/	-9	0.4	/	/
COc1cccc(N(C(C)=O)C2=NCCCS2)c1	/	-3	0.8	/	/
COc1ccc(N2CCN(Cc3nc4scc(-c5ccccc5)c4c(=O)[nH]3)CC2)cc1	56%	56	-0.8	5	-40
Cc1cc(C)c2nc(-c3ccccn3)cc(C(=O)NCc3ccco3)c2c1	6%	13	-2.0	-4	8
COc1ccc(-c2c[n+]3c(n2-c2ccccc2)SCC3)cc1OC	3%	-3	2.2	0	/
O=S1(=O)CCO[C@H]2Cc3ccccc3[C@H]2N1Cc1ccccc1Br	/	-9	3.7	/	/
O=C(/C=C/c1ccc(Cl)cc1)NC(=S)Nc1ccc(C(=O)O)cc1	/	9	4.6	/	/

The last five compounds of the section before open the next one:
SMILES	Mtb growth	Mtb bLac sens	RecA splice inh	Arbovirus inh	YopH inh	others
COc1ccc(N2CCN(Cc3nc4scc(-c5ccccc5)c4c(=O)[nH]3)CC2)cc1	56%	56	-0.8	5	-40
Cc1cc(C)c2nc(-c3ccccn3)cc(C(=O)NCc3ccco3)c2c1	6%	13	-2.0	-4	8
COc1ccc(-c2c[n+]3c(n2-c2ccccc2)SCC3)cc1OC	3%	-3	2.2	0	/
O=S1(=O)CCO[C@H]2Cc3ccccc3[C@H]2N1Cc1ccccc1Br	/	-9	3.7	/	/
O=C(/C=C/c1ccc(Cl)cc1)NC(=S)Nc1ccc(C(=O)O)cc1	/	9	4.6	/	/
COc1ccc(C2CCCN2C(=O)Nc2ccccc2)cc1OC (stereo unspecified)	-1%	-4	3.2	19	-23
COC(=O)C1=C(C)NC(=O)NC1c1ccccc1 (stereo unspecified)	-3%	-6	-1.3	-2	-4
COc1ccc(OC)c(C2C3=C(CCCC3=O)NC3=C2C(=O)CCC3)c1	-4%	2	1.9	-1	-6
O=C(Nc1ccccc1N1CCCCC1)c1ccco1	22%	89	7.9	2	-10
COc1cc(NS(=O)(=O)c2ccc(N/C=C(\C#N)c3nc4cc(Cl)ccc4o3)cc2)nc(OC)n1	0%	10	21	-6	-3
COc1ccc(Cn2nc(C)n(N(C)c3ncc(C(F)(F)F)cc3Cl)c2=O)cc1	-6%	-3	1.1	3	-2
COc1ccc(NC(=O)CN(C)C(=O)c2ccc(N3CCOCC3)c([N+](=O)[O-])c2)cc1	/	-5	0.5	/	/
CCOC(=O)c1sc(NC(=O)Cn2nnc3sc4c(c3c2=O)CCCC4)nc1C	-2%	8	0.8	13	-13
COc1ccccc1NC(=S)N(Cc1ccc(Cl)cc1)CC1CCC(C(=O)O)CC1 (stereo unspecified)	-6%	7	-4.0	10	/
O=C(O)CN1CCN(Cc2ccc(F)cc2)C1=O	/	-3	-1.5	/	/
O=C(NCCOc1ccccc1)c1cc(S(=O)(=O)N2CCOCC2)ccc1F	/	4	-0.7	/	/
Cc1cc(C)cc(-n2ccnc2SCC(=O)O)c1	7%	-3	-3.7	-6	/
CC1CCCCC1NC(=O)COC(=O)c1ccccc1NC(=O)c1ccco1 (stereo unspecified)	17%	-4	-1.7	16	-22
COc1cccc(S(=O)(=O)N2CCN(c3ccccc3F)CC2)c1	4%	2	6.1	10	2

High-throughput results: PubChem BioAssay, several laboratories

An excerpt. The share of hits here may be higher or lower than overall.
